Compound activity as filed in PubChem BioAssay.
Autofluor counter – compound fluorescence in toxin protease inhibitor counterscreen | compound autofluorescence counterscreen, microsphere flow cytometry; active compounds read high | fluorescence intensity (concentration not given with the values) | actives 3.1% (n = 360,000);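 active = at least 3 SD above the mean of all compounds, about 16000 in these data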;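 note: 100 nL of 1 mM stock went into each well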
PrP 5UTR inh – inhibition of PrP 5' UTR reporter expression. inhibition, % (test concentration not listed). AID 488862. actives 0.35% (n = 340,000). cell-based PrP 5' UTR mRNA reporter, plate reader;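 active = every replicate at 50% or more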;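 note: 0 = median of the neutral control wells; tested in H4 reporter cells; numbers are from one replicate; inactives centre near -14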
Mtb hypoxia inh – reduces hypoxia-regulated biosensor signal in M. tuberculosis. M. tuberculosis hypoxia-regulated fluorescent reporter, fluorescence. fluorescence inhibition, % (test concentration not listed). actives 0.1% (n = 300,000);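 active = 35 to 45% if threefold the growth effect, above 45% if 1.5-fold the growth effect; inactive = the rest, general growth blockers included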;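 note: wells of about 50 µL received 100 nL stock; 0% = vehicle wells and 100% = reference inhibitor wells; whole bacteria with a GFP reporter of the hypoxia response; strong numbers were not always called active; many hits fall short of the cut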
BJeLR viability – kills HRASV12-expressing BJeLR cells; BJeLR (HRASV12) viability, CellTiter-Glo ATP luminescence, 48 h; reference of the scale not given here; inhibition, % (concentration not given with the values); actives 0.17% (n = 300,000);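 active = replicate mean above 50%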;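 note: 50 nL library stock added to about 25 µL; numbers are from one replicate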
ugtP null kill – kills S. aureus RN4220 lacking UgtP | actives 0.54% (n = 330,000) | growth inhibition, % (test concentration not listed) | S. aureus RN4220 ugtP deletion, OD600 growth, 16 h; some inactives read as strong as hits;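 active = z-score under -3 and OD600 up to 0.15 on both plates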;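 note: plate controls were untreated wells for no effect and antibiotic for full effect; wells of about 80 µL received 100 nL stock; the first replicate is given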
RN4220 kill – S. aureus RN4220 growth inhibition; OD600, 16 h; inhibition, % (test concentration not listed); actives 0.33% (n = 330,000); AID 1259311;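 active = z-score of -3 or lower and OD600 up to 0.18 on both plates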;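 note: plate controls were untreated cells for no effect and reference antibiotic for full effect; stock transfer was 100 nL into about 80 µL; one replicate is shown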
Mtb hypoxia inh growth – further read-out of Mtb hypoxia inh, marked with its call; growth inhibition, %; measured here: M. tuberculosis growth (absorbance);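 0% = vehicle and 100% = reference antibiotic; read after six days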
* hit, by the source's call; nt = not tested or not shown.

SMILES	Autofluor counter	PrP 5UTR inh	Mtb hypoxia inh	Mtb hypoxia inh growth	BJeLR viability	ugtP null kill	RN4220 kill
Cn1c2ccccc2c2nnc(SCC(=O)NC3CC3)nc21	3650	-18	15	9	-16	6	1.8
CC(C)(C)OC(=O)C[C@@H]1C/C=C\C[C@@H](CC(=O)N[C@@H](CO)Cc2ccccc2)C(=O)NCCOC1=O	3876	-21	-4	3	nt	5	3.6
CCN1CCN(C(c2cccs2)C(C)NC(=O)c2cccnc2)CC1 (centres undefined)	7845	0	-4	-6	-2	1	-2.2
COc1cc(NC(=S)NC(=O)c2ccc(C)cc2C)ccc1NC(=O)c1cccs1	2902	-10	8	4	1	-5	8.3
Cc1cc(Br)ccc1S(=O)(=O)NCc1ccccc1	6206	4	6	6	-2	2	8.8
COc1ccc(CNc2ccc(-c3ccccc3OC)nn2)cc1	9551	-29	13	6	-6	4	3.3
CC(NC(=O)CCCn1cc([N+](=O)[O-])cn1)c1ccccc1 (centres undefined)	3624	-7	12	-4	-13	1	3.6
CCOc1cc(/C=C/c2nc3ccccc3s2)ccc1OCC(=O)N1CCOCC1	2505	-3	10	14	-4	-9	10
CCc1cc(=O)oc2c(C)c(OC(C)C(=O)NCCCN3CCOCC3)ccc12 (centres undefined)	5642	-13	-10	9	4	1	0.9
O=S(=O)(c1cccc(Cn2nnc(-c3ccc(F)cc3)n2)c1)N1CCOCC1	5399	-16	3	-13	-9	5	3.1
CC(C)CC(OC(=O)c1nsc(Cl)c1Cl)C(=O)NC1CCCC1 (centres undefined)	5540	-4	10	0	-11	1	2.9
CC(=NNC(=O)Cc1ccccc1)c1ccc(C)s1	nt	nt	6	14	nt	4	-2.0

Full records from above. Screens in order: Autofluor counter, PrP 5UTR inh, Mtb hypoxia inh, Mtb hypoxia inh growth, BJeLR viability, ugtP null kill, RN4220 kill
`COc1cc(NC(=S)NC(=O)c2ccc(C)cc2C)ccc1NC(=O)c1cccs1` is listed as 2902, -10, 8, 4, 1, -5, 8.3
`CC(C)(C)OC(=O)C[C@@H]1C/C=C\C[C@@H](CC(=O)N[C@@H](CO)Cc2ccccc2)C(=O)NCCOC1=O` is listed as 3876, -21, -4, 3, nt, 5, 3.6
`O=S(=O)(c1cccc(Cn2nnc(-c3ccc(F)cc3)n2)c1)N1CCOCC1` is listed as 5399, -16, 3, -13, -9, 5, 3.1
`CC(=NNC(=O)Cc1ccccc1)c1ccc(C)s1` is listed as nt, nt, 6, 14, nt, 4, -2.0

Other compounds
SMILES	Autofluor counter	PrP 5UTR inh	Mtb hypoxia inh	Mtb hypoxia inh growth	BJeLR viability	ugtP null kill	RN4220 kill
Cn1c(=O)c2c(nc(CN3CCOCC3)n2CCc2ccccc2)n(C)c1=O	3988	-54	17	7	6	0	2.2
COc1ccccc1N1CCN(N=C/C=C\c2ccccc2[N+](=O)[O-])CC1	nt	nt	7	0	nt	58	5.1
CCOC(=O)C1(C)NC(c2ccc(OC)c(OC)c2)C2C(=O)N(CC)C(=O)C21 (centres undefined)	4691	-22	-2	10	4	-2	2.9
Nc1c(Cl)ncnc1N/N=C/c1ccc(O)cc1	3528	-16	nt	nt	-4	nt	nt
O=C(O)C1CCCCC1C(=O)Nc1ccc(S(=O)(=O)N2CCCC2)cc1 (centres undefined)	5790	-9	6	7	-11	9	3.8
CCS(=O)(=O)CCSC1OC(COC(C)=O)C(OC(C)=O)C(OC(C)=O)C1OC(C)=O (centres undefined)	3779	-5	5	4	6	14	2.3
Cc1cc2nc3n(c2cc1C)CC1CC(C(=O)NCc2ccccc2)N(C)C31 (centres undefined)	3680	-26	9	10	1	2	3.5
CC(=NOC(=O)c1ccccc1Br)c1ccc(C)cc1	nt	nt	8	-4	nt	7	1.4
COc1ccc(C2=NN(C(=O)c3ccco3)C(c3ccco3)C2)cc1OC (centres undefined)	5720	-2	6	2	-14	8	-2.1
CCCN1CCN(CCCNC(=S)Nc2ccc(OC)cc2)CC1	2142	-3	6	6	-21	12	2.4
CC(C)Oc1ccc(C(=O)Nc2c3c(nn2-c2ccccc2)CS(=O)(=O)C3)cc1	5606	-5	4	1	-2	1	-1.0
CC(C)CC(NC(=O)c1nc[nH]c1C(=O)N1CCC(C)CC1)C(=O)OCc1ccccc1 (centres undefined)	nt	nt	13	9	nt	-9	6.0
O=C(O)c1cc(N/N=C/c2cccc3ccccc23)ccc1Cl	3709	-69	nt	nt	-4	nt	nt
CN(C)CCCNS(=O)(=O)c1ccc(-n2nnc3ccccc32)c([N+](=O)[O-])c1	5843	-15	-5	5	-9	11	2.9
O=Cc1c(Cl)nc2ccccn12	4624	-18	-6	1	6	2	3.5
Cn1nc(C(F)(F)F)c(CNC(=O)C(C)(C)CCl)c1N1CCOCC1	4709	-21	9	5	-2	6	4.7
CCCCCCN=C1CC(C)(C)CC(=O)/C1=C(/O)CCC	4312	-18	nt	nt	-2	nt	nt
COc1ccc(N2CCN(C(CNC(=O)C(=O)NCC(OC)OC)c3ccco3)CC2)cc1 (centres undefined)	5358	-8	6	2	-7	3	0.7
COc1ccc(C(=O)NCC(=O)N/N=C/c2cccnc2)cc1OC	4236	0	nt	nt	0	nt	nt
CCCc1cc(=O)[nH]c(SCC(=O)N2CCN(S(=O)(=O)c3ccccc3)CC2)n1	2381	-32	12	8	7	5	0.4
COc1ccc(C=NN2C(C)CCCC2C)cc1OC (centres undefined)	nt	nt	-5	-8	nt	7	3.5
CC(=O)Nc1c(O)c2cccc3c2n(c1=O)CCC3	4259	-9	-7	-4	-8	5	4.1
CCCCOC(C)n1cc(F)c(=O)[nH]c1=O (centres undefined)	2536	-30	6	9	-2	4	2.1
CC(C)(C)NC(=O)CN(C(=O)c1csnn1)c1ccccc1-c1ccccc1	2494	3	2	3	6	0	0.1

Quoted from the listing:
Entry for O=Cc1c(Cl)nc2ccccn12 in BJeLR viability: 6
Entry for COc1ccc(C(=O)NCC(=O)N/N=C/c2cccnc2)cc1OC in Autofluor counter: 4236
Entry for O=C(O)c1cc(N/N=C/c2cccc3ccccc23)ccc1Cl in Autofluor counter: 3709
Entry for CN(C)CCCNS(=O)(=O)c1ccc(-n2nnc3ccccc32)c([N+](=O)[O-])c1 in BJeLR viability: -9
Entry for CC(C)(C)NC(=O)CN(C(=O)c1csnn1)c1ccccc1-c1ccccc1 in BJeLR viability: 6

The list continues.
SMILES	Autofluor counter	PrP 5UTR inh	Mtb hypoxia inh	Mtb hypoxia inh growth	BJeLR viability	ugtP null kill	RN4220 kill
COc1ccc(NS(=O)(=O)c2ccc(O)c([N+](=O)[O-])c2)cc1S(=O)(=O)N1CCCCC1	4130	-10	7	4	nt	10	7.7
Cc1ccc(-c2nc(NN=Cc3ccncc3)c3ccccc3n2)cc1	nt	nt	-1	-8	nt	-13	21
COC(=O)c1ccc(COc2ccccc2[N+](=O)[O-])o1	2497	-9	16	6	2	5	7.5
CCOc1ccc(/C=N/n2c(SC)nnc(C(C)(C)C)c2=O)cc1	2376	-26	nt	nt	-7	nt	nt
O=C(c1cccc(Cl)c1Cl)N1CCN(c2ccccn2)CC1	16331*	1	13	17	-4	3	7.3
Cc1cc(C)c(C(=O)N2CCCC(N3CCN(c4ccc(F)cc4)CC3)C2)o1 (centres undefined)	6179	-15	nt	nt	-7	nt	nt
COCCn1nnnc1CN1CCC(NC(=O)c2ccc(Br)cc2)CC1	3728	0	nt	nt	-13	15	7.1
CC(=O)C1=C(O)C(=O)N(CC(=O)O)C1c1ccccc1Cl (centres undefined)	6573	-8	nt	nt	-2	11	5.4
O=C(Nc1nonc1-c1ccc(Cl)cc1)c1ccccc1	4327	-12	12	2	-4	11	-7.1
O=C1CC(c2cccc(Br)c2)c2cc3c(cc2N1)CCC3 (centres undefined)	8253	-50	9	3	14	-30	6.4
CCN(CC)c1ncnc2c1cnn2Cc1ccc(C)cc1	4095	-8	13	8	-11	2	0.1
COc1ccccc1-c1cc(C(=O)N/N=C\c2cnn(C)c2C)c2ccccc2n1	10127	-21	nt	nt	1	nt	nt
Cc1nc(N2CCC(C)CC2)c(C#N)c(C)c1[N+](=O)[O-]	4774	-3	12	2	-16	6	5.0
O=C(CNc1cc(S(=O)(=O)N2CCOCC2)ccc1N1CCCC1)N1CCc2ccccc21	5124	2	-19	5	0	7	4.3
CCN(C(=O)CSc1nc2c(cnn2-c2ccccc2)c(=O)[nH]1)C1CCS(=O)(=O)C1 (centres undefined)	2420	-38	9	15	5	9	5.1
COc1ccc(NC(=O)COc2ccc(C)nc2[N+](=O)[O-])cc1S(N)(=O)=O	nt	-6	9	-4	nt	13	25
COc1ccc2[nH]c(C)c(C(=O)CN3CC(C)OC(C)C3)c2c1 (centres undefined)	2851	-12	nt	nt	1	nt	nt
O=C(CCc1nc2ccccc2s1)NC1CCOC1=O (centres undefined)	5261	-13	13	2	15	-7	9.1
CCN1CCN(C(=O)NC2CCCCC2)CC1	nt	-19	20	4	19	4	4.3
CC(=O)NS(=O)(=O)c1ccc(NC(=O)c2ccc3c(c2)C(=O)N(CCC(C)C)C3=O)cc1	2509	-14	7	9	-24	-1	2.3
COC(=O)[C@H](CCSC)NC(=O)Cn1ccc(N)nc1=O	3960	-19	-7	2	nt	12	24
CN(C(=O)c1cccc(NC(=O)Cc2ccc(NC(=O)C3CCN(C(=O)C4CC4)CC3)cc2)c1)C1CCC1	3354	-3	3	10	nt	0	1.7
CS(=O)(=O)c1cccc(C(=O)Oc2ccccc2)c1	6742	4	-93	-33	6	9	1.5
C=CCC1(CC=C)CCCN1C(=O)C1CCC(=O)N(CCc2ccc(OC)cc2)C1 (centres undefined)	6567	-53	2	9	-8	2	3.2
Cc1cc(C)cc(NC(=S)NCc2cccn2C)c1	11465	-16	5	4	-3	1	1.9
Nc1c(Cl)cc2c(c1Br)Cc1ccccc1-2	3571	-27	6	6	nt	0	-0.5
COc1ccc(S(=O)(=O)N2CCOCC2)cc1NC(=O)COc1ccc(C)cc1	2742	-2	1	0	nt	8	7.7
O=C(NCCC1=CCCCC1)c1c(O)nc2ccccn2c1=O	nt	-23	9	8	5	6	7.2
CNC(=S)NNC(=O)COc1ccc(C)c(C)c1	1998	-18	6	2	6	7	4.5
Cc1ccccc1-n1c(SCc2cccc(F)c2)nc2[nH]ncc2c1=O	2814	-15	0	7	-1	5	4.6
CCN(CC)C(=O)Cn1c(=O)n(-c2ccccc2)c(=O)c2sccc21	4576	-9	11	6	4	5	5.5
CCN(CCn1cccn1)C(=O)c1cccc(OC2CCN(S(C)(=O)=O)CC2)c1	6314	-11	6	5	3	5	3.3
NC(=O)Cn1nc([N+](=O)[O-])nc1Oc1ccccc1F	4471	-23	8	3	-4	-5	23
O=S(=O)(NC1CC1)c1ccc(Cl)cc1	3949	-12	-4	10	-6	0	0.2
Cc1ccc(C(=O)Nc2ccc(N3CCN(C(=O)c4ccco4)CC3)cc2)cc1	3934	-23	-3	7	3	3	5.7
Cc1csc(NC(=O)/C=C/c2ccc(C)o2)n1	2074	-52	nt	nt	-5	nt	nt
CC(CO)(CO)N=Cc1c(O)n(-c2cccc3ccccc23)c(=O)[nH]c1=O	2772	-15	15	9	-8	6	5.5
COc1ccc(OCC(O)CNC(=O)c2cccc3c2C(=O)c2ccc(Cl)cc2S3(=O)=O)cc1 (centres undefined)	nt	nt	-2	4	nt	1	2.1
COc1ccc(-c2nc(C)ncc2N=Nc2ccccc2)cc1	3492	-13	nt	nt	-1	3	9.2
COc1ccccc1CCNCc1cc2c(cc1[N+](=O)[O-])OCO2	2589	8	nt	nt	4	9	4.5
Cc1c(Br)cc(C(=O)N2CCCC2)c(C)c1C	3480	0	13	5	0	7	4.5
COC(=O)C1=C(c2ccc(F)cc2OCc2ccccc2)C[C@@H]2CC[C@H]1N2C(=O)NCc1cccc(F)c1	2973	-15	8	6	nt	6	-22
Cc1cc(=O)c(C(=O)c2ccccc2)c(C)o1	5412	-38	5	-2	-5	1	2.1
COc1ccc(CCN=CC2=C(O)CC(C)(C)CC2=O)cc1	4410	-23	4	1	0	2	0.1
CCOc1ccc(N=C2SC(C(=O)Nc3ccccc3C#N)C(N)=C2C(=O)Nc2ccc(Cl)cc2)cc1 (centres undefined)	2402	-9	-3	-5	-2	-7	-7.2
COCCSc1nnc(NC(=O)C(C)(C)C)s1	3141	-40	4	14	3	-3	-0.8
CCOC(=O)Cn1cnc2scc(-c3ccccc3)c2c1=O	3916	-12	7	10	7	10	2.3
CCn1ncc(S(=O)(=O)N2CCN(c3cccc(OC)c3)CC2)c1C	5055	-60	4	0	-8	0	2.0
O=C(Cc1c(F)cccc1Cl)NNC(=O)Nc1ccc2c(c1)OCO2	5497	-29	2	8	-2	1	0.3
COc1ccc(NC(=O)c2cn3c(nc4ccccc43)c(C#N)c2C)cc1	5113	-13	5	-8	11	1	5.7
C/C(=C(\C#N)C(=O)NCCCN1CCOCC1)N(C)C	3286	-32	6	8	-2	-4	8.9
